# RecA splice inh – Mtb RecA intein splicing inhibition. P9WHJ3. cell-free RecA intein splicing, fluorescence. inhibition, %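 (about 9 µM by stock and volumes)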. 290,000 tested, 0.75% active. AID 2221; in the data active = inhibition above about 30%; inconclusive = no clear call, values can overlap the other calls;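 also: 0% = vehicle wells and 100% = reference inhibitor control wells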
# Target sequence (P9WHJ3 whole entry, looked up, canonical isoform): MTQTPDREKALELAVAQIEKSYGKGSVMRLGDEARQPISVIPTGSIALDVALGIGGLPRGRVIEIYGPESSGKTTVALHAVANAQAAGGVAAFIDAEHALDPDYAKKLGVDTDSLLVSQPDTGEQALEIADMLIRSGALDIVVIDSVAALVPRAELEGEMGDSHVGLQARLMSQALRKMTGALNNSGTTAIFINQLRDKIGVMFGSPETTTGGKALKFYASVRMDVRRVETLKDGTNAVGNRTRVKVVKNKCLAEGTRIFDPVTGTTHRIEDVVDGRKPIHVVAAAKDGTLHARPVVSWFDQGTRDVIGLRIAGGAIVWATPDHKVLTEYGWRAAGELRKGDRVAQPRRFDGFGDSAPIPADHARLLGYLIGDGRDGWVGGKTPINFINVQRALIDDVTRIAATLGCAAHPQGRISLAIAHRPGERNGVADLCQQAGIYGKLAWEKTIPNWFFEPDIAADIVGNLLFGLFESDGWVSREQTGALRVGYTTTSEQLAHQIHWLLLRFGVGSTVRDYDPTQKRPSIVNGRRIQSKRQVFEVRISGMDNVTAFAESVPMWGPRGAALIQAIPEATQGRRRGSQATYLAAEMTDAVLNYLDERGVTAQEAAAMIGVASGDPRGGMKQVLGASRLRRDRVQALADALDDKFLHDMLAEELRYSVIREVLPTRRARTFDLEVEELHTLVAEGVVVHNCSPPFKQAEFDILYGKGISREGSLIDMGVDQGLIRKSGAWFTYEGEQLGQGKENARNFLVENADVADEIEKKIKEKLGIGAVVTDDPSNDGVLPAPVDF
# YopH PTP inh – YopH (Yersinia) phosphatase inhibition; fluorescence Ex485/Em525; inhibition, %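 (about 10 µM by stock and volumes)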; 140,000 tested, 0.16% active; AID 898;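 active = inhibition of 50% or more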;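 also: controls were vehicle for no effect and minimum signal wells for full effect; inactives centre near -20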
# Arbovirus anti – antivirals against arbovirus infection. AID 1251. arbovirus infection cell-based antiviral screen. 200,000 tested, 0.37% active. inhibition, % at 10 µM;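 active = inhibition from about 30%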;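 also: bluetongue infection of BSR cells; cell survival read as ATP light after 72 h; 0% = infected wells without compound and 100% = uninfected wells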
# Mtb betalactam – beta-lactam sensitization of Mtb H37Rv | M. tuberculosis H37Rv growth with meropenem, percent inhibition; hits of this screen are not shown here | inhibition, % at 25 µM | 330,000 tested, 0.27% active | AID 434955;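 active = about 74% or more and at least 40 points above the plate without the antibiotic, then above 30% in a dose series; inconclusive = first-round hits that could not be retested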;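 also: growth measured after seven days incubation then overnight dye step; 0% = bacteria only wells and 100% = bacteria with antibiotic; twin plates without the antibiotic show which effects depend on it; some results filed as inactive read as strong as hits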
# Mtb growth – M. tuberculosis H37Rv growth inhibitors, H37Rv strain (AID 1626); M. tuberculosis H37Rv growth inhibition; higher % means a stronger effect; one-dose inhibition, % at 10 µM; IC50 in µM for titrated hits; 220,000 tested, 0.95% active;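 active = confirmed in a dose series; inconclusive = inhibition above 80% but not taken into the dose series; inactive = below 80% or under 30% at every dose of the series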;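 also: bacteria incubated seven days before Alamar blue readout; 0% = bacteria only wells and 100% = bacteria with antibiotic wells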
# Arbovirus anti repeat – recorded beside Arbovirus anti, whose call it bears; inhibition, %; measured here: 10K subset replicate screen; many hits read low in the repeat;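 first of two repeat runs on a subset; 0% = infected and 100% = uninfected wells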
# The depositor's hits bear a star; ? = inconclusive; · = no result given.
# Start of the listing, in advance (3 entries):
SMILES,RecA splice inh,YopH PTP inh,Arbovirus anti,Mtb betalactam,Mtb growth,others
COc1cccc(C2=NOC(C(=O)NCc3ccc(F)cc3)C2)c1 (stereo unspecified),1.4,-1.1,-7.5,7.8,·,
Brc1ccc(N=Cc2ccccn2)cc1,0.5,-21.5,-7.8,6.0,-3.0%,
COc1ccc(/C=C/C(=O)NCC(=O)N/N=C(/C)c2ccc(Cl)cc2)cc1,-4.0,·,·,3.8,·,

# Main list, previewed entries included:
SMILES,RecA splice inh,YopH PTP inh,Arbovirus anti,Mtb betalactam,Mtb growth,others
COc1cccc(C2=NOC(C(=O)NCc3ccc(F)cc3)C2)c1 (stereo unspecified),1.4,-1.1,-7.5,7.8,·,
Brc1ccc(N=Cc2ccccn2)cc1,0.5,-21.5,-7.8,6.0,-3.0%,
COc1ccc(/C=C/C(=O)NCC(=O)N/N=C(/C)c2ccc(Cl)cc2)cc1,-4.0,·,·,3.8,·,
CC1=NN(c2ccc(Br)cc2)C(=O)/C1=C/c1ccc(-c2ccccc2C(=O)O)o1,-0.3,·,·,-4.1,·,
Fc1ccc(NC(=S)Nc2cccnc2)cc1,1.7,·,12.4,8.7,-5.5%,
O=C(c1ccccc1)[C@H]1CC=CC[C@H]1C(=O)O,0.2,3.1,0.6,-2.8,0.2%,
CCc1cccc(C)c1NC(=O)CN(C)S(=O)(=O)c1ccc(-c2ccc(=O)[nH]n2)s1,0.2,·,·,-0.7,·,
N/C(=N\OC(=O)Cc1ccccc1)c1ccccn1,0.8,-5.7,1.0,0.8,-4.2%,
O=S1(=O)CCO[C@H]2Cc3ccccc3[C@H]2N1Cc1cccc(C(F)(F)F)c1,3.7,·,·,16.5,·,
C/C(N)=C(/C#N)C(=O)COC(=O)C(c1ccccc1)c1ccccc1,1.7,·,3.0,6.6,-2.4%,
Cc1nc(CS(=O)c2ccc(Cl)cc2)cc(N2CCOCC2)n1 (stereo unspecified),-0.4,-11.5,11.2,-10.1,5.0%,
CCOc1cc(N2CCOCC2)c(OCC)cc1NC(=O)c1ccc(OC(C)C)cc1,-0.8,·,5.9,-0.6,7.0%,
N#C/C(=C\c1ccc(Cl)s1)C(=O)N1CCN(c2ccccc2)CC1,4.6,-34.7,18.1,-9.0,0.5%,
O=C(Nc1nnc(-c2ccccc2)s1)c1cccc(S(=O)(=O)N2CCOCC2)c1,·,-28.7,-4.8,-9.5,-4.8%,
Cc1nc(C)c(-c2ccn(S(=O)(=O)c3ccc(Cl)cc3)n2)o1,·,·,·,0.3,14.2%,
O=C(OCC(=O)c1ccccc1Br)c1ccccn1,1.4,-24.4,3.4,-4.0,0.7%,
COC(=O)c1ccc(NC(=S)N2CCN(C(=O)c3ccco3)CC2)cc1,0.5,·,·,-1.1,·,
COc1ccc(N2CC(C(=O)Nc3c4c(nn3-c3ccc(OC)cc3)CS(=O)(=O)C4)CC2=O)cc1 (stereo unspecified),-0.4,·,·,-8.7,·,
CC12CCC(C(=O)NCCCN3CCOCC3)(C(Br)C1=O)C2(C)C (stereo unspecified),-1.4,·,·,-4.3,-5.6%,
Cc1occc1C(=O)NNC(=O)c1ccccc1F,-1.2,·,5.7,-0.9,-6.0%,
COC(=O)c1ccc(NC(=O)COc2ccccc2OC)cc1,-2.6,-9.4,-2.8,-1.0,2.8%,
COC(=O)c1ccc(CSc2nc3ccccc3s2)o1,6.1,-34.1,3.0,15.8,8.0%,
O=C1CCCN1CCCNc1nc2c(S(=O)(=O)c3ccc(Br)cc3)nnn2c2ccccc12,0.5,·,·,10.7,·,
O=C(Nc1ccc(F)cc1)c1cc(-c2ccccn2)nc2c(Cl)cccc12,-2.5,·,·,-9.7,·,
Cc1ccnc(NC(=O)COc2ccc3oc4c(c3c2)CCCC4)c1,-1.6,11.3,-1.1,97.2,79.0%,
COC(=O)c1nn(-c2ccccc2)c2nnc(Cc3ccc(C)cc3)c(=O)n12,-2.2,-11.9,5.7,2.3,2.1%,
CC1(C)CC(=O)C2=C(C1)Oc1ncn(Cc3ccco3)c(=N)c1C2c1ccccc1 (stereo unspecified),0.9,-28.6,-2.9,5.2,-1.6%,
S=C(NCc1ccco1)Nc1ccccn1,-0.1,·,-4.1,18.6,30.9%,
CCCCN(C(=O)COC(=O)CSc1cc(C)c2ccccc2n1)c1c(N)n(CCC)c(=O)[nH]c1=O,1.1,·,·,-6.0,·,
CC(C)C(=O)NS(=O)(=O)c1ccc(N)cc1,-3.5,-16.8,5.7,-8.6,-5.9%,
Oc1oc(C=Nc2ccc(F)cc2F)c2ccccc12,-1.0,·,9.7,2.3,9.9%,
Cn1c(NCc2ccccc2)nc2c1c(=O)n(Cc1ccccc1)c(=O)n2C,-2.0,41.0,2.2,-21.4,-5.2%,
Cc1cc(NC(=O)CSc2nc3c(C)cccc3cc2C#N)no1,-1.4,·,·,0.3,·,
COc1ccc(NS(=O)(=O)c2ccc(OCC(=O)N3CCOCC3)cc2)cc1,3.3,-4.8,-1.2,-3.2,4.5%,
Fc1cccc(Cn2cc(C(=S)N3CCCCC3)c3ccccc32)c1,-1.4,-13.4,-3.8,-15.7,8.5%,
COC(=O)C1N2C(=O)[C@@H](NC(=O)COc3ccccc3)[C@H]2SC1(C)C (stereo partly specified),2.2,·,·,-0.4,-4.8%,
CCCn1c(SCC(=O)c2c[nH]c3ccccc23)nnc1-c1ccncc1,-1.3,-4.7,1.1,10.4,10.4%,
Cc1nc(S(=O)(=O)c2ccc(Cl)cc2)c(NCc2ccccc2)o1,1.8,-26.8,5.0,-0.8,-2.6%,Arbovirus anti repeat=1.9
O=C(/C=C/c1cn(-c2ccccc2)nc1-c1cccnc1)NCCN1CCOCC1,2.0,·,17.1,-0.6,-1.1%,
O=C(O)c1ccc(N2C(=O)c3[nH]nc(-c4ccccc4)c3C2c2ccccc2)cc1 (stereo unspecified),1.2,·,-3.1,-0.9,3.2%,
CCN(Cc1cc2ccccc2[nH]c1=O)C(=O)c1cccc([N+](=O)[O-])c1,1.4,·,·,-12.8,-1.9%,
CCN(CC(=O)Nc1c(F)cccc1F)C(=O)Cc1csc(-c2ccccc2)n1,1.3,·,·,-7.9,·,
CCCC[n+]1ccn(-c2nc3ccccc3nc2[N-]S(=O)(=O)c2ccc(Br)cc2)c1,-5.9,·,·,4.3,-4.2%,
CCOC(=O)C(=O)NCC(c1ccco1)S(=O)(=O)c1cccs1 (stereo unspecified),-0.4,·,·,-15.7,·,
CCSc1nc2ccccc2n1Cc1ccccc1F,7.8,-4.2,-2.8,11.5,4.3%,
COc1ccc(NC(=O)COC(=O)CNS(=O)(=O)c2ccccc2)cc1OC,-1.9,·,-0.6,-0.7,-5.5%,
CCOc1ccc(/C=C2\SC(=S)N(CC(=O)NCCCN3CCOCC3)C2=O)cc1,1.2,·,·,0.8,·,
COCC(C)n1c(SCc2nc3ccccc3c(=O)[nH]2)nc2ccccc2c1=O (stereo unspecified),-1.1,·,45.0*,5.9,-2.2%,
COc1cccc(-c2nnc(SCC(=O)Nc3cc(C)on3)n2C)c1,0.2,-14.2,-2.2,-1.2,-2.4%,
CC1(C)Cc2nc3[nH]c(=S)n(-c4ccccc4)c(=O)c3cc2CO1,-2.4,-23.5,·,?,-8.0%,

# Other structures.
SMILES,RecA splice inh,YopH PTP inh,Arbovirus anti,Mtb betalactam,Mtb growth,others
CCN(CC)S(=O)(=O)c1ccc(N2CCCC2)c(NS(=O)(=O)c2ccccc2)c1,-0.1,-25.9,4.5,5.1,5.4%,
Cn1c(=O)c2c(SCC(=O)N3CCCc4ccccc43)nc(CC(C)(C)C)nc2n(C)c1=O,0.0,-17.9,-36.5,-4.3,·,
CCCOC(=O)c1ccc(NC(=O)Cc2cccs2)cc1,1.0,·,·,95.5,·,
CCN1CCN(c2ccc(S(=O)(=O)N3CCCCC3)cc2NC(=O)CC(C)c2ccccc2)CC1 (stereo unspecified),2.5,·,·,6.8,·,
COc1ccc(Cc2nnc(-c3ccc(F)cc3)o2)cc1OC,-1.4,-10.8,4.7,0.2,7.7%,
O=C1C2C3C=CC(C4CC34)C2C(=O)N1/N=C/c1ccc(-c2ccccc2[N+](=O)[O-])o1 (stereo unspecified),2.4,-47.6,-7.2,3.6,2.8%,
O=C(Nc1cccc(C(F)(F)F)c1)NC1CCN(S(=O)(=O)c2ccc(F)cc2)CC1,2.0,-1.5,8.2,0.0,-11.4%,
C[N+](C)(C)c1ccccc1,-0.6,·,0.7,-1.0,1.8%,
Cc1nnc2c3ccccc3c(-c3cccc4ccccc34)nn12,·,-40.8,-20.4,·,0.5%,
COc1cc(OC)c(C(=O)N/N=C/c2ccoc2)cc1OC,0.3,·,·,-1.2,·,
O=C(Nc1cccc(S(=O)(=O)NC2=NCCC2)c1)c1cc(-c2ccco2)nc2ccccc12,-8.7,·,·,14.5,-2.6%,
COc1ccc(OCC(=O)Nc2ccc3oc(=O)ccc3c2)cc1,-2.1,·,·,88.0,·,
Cc1ccc(O)c(C(=O)c2cnn(C(=O)Cc3csc(C)n3)c2)c1,·,4.0,-1.1,-2.8,3.5%,Arbovirus anti repeat=3.4
Cn1c(=O)n(Cc2ccc(Br)cc2)c2ccccc21,4.2,·,-10.0,-2.4,2.5%,
Oc1ccc(Cl)cc1C(C#Cc1ccccc1)N1CCOCC1 (stereo unspecified),19.9,-28.5,9.7,-9.0,-5.0%,
CCc1cc(=O)oc2cc(C)cc(OCC(C)=O)c12,-1.9,·,·,-2.0,-5.6%,
Cc1ccc(C)c(NC(=O)CSc2nnc(-c3ccncc3)n2N)c1,4.2,-53.8,4.4,-15.9,-4.6%,Arbovirus anti repeat=0.2
COc1cc(OC)c(OC)cc1/C=C1/C(=O)N=C(N)N1C,0.8,·,5.8,-0.8,2.5%,
Cc1ccc(S(=O)(=O)NC(CC(=O)O)c2cccs2)cc1 (stereo unspecified),0.7,·,·,-9.3,·,
COc1ccccc1NC(=O)CC1C(=O)NCCN1C(=O)Nc1ccccc1 (stereo unspecified),-2.4,10.2,5.5,-5.3,-2.2%,
COc1ccc(-c2cc(C(=O)NCc3ccco3)no2)cc1OC,·,-34.3,-8.1,-8.9,-2.4%,
COC(=O)CCCC(=O)N1CCOCCN(C(=O)CCCC(=O)OC)CCOCC1,·,-0.9,3.9,4.2,5.8%,
CC(C)CN(CC(C)C)C(=S)Nc1ccc(Cl)cc1,-7.0,·,4.6,-10.3,7.6%,
CCN1CCN(c2ccc(S(=O)(=O)N3CCCCC3)cc2NC(=O)c2ccccc2)CC1,0.7,·,·,2.1,·,
COc1ccc(-c2nc(CS(=O)CC(=O)N3CCN(C)CC3)c(C)o2)cc1 (stereo unspecified),-5.2,·,·,6.8,·,
CCCOc1ccc(OCCn2nc(C(=O)O)c3ccccc3c2=O)cc1,4.7,·,12.4,-12.0,1.4%,
Cc1ccc(/C=C/C(=O)Nc2ccc(N(C)C)cc2)o1,3.1,-10.7,-21.3,65.9,10.4%,
Fc1ccc(NC(=S)N2N=CCC2c2ccccc2)cc1 (stereo unspecified),7.9,14.0,-0.1,4.1,-0.9%,
Cc1cc(S(=O)(=O)N2CCCOC2CNC(=O)C(=O)NCCc2ccco2)ccc1F (stereo unspecified),1.7,·,·,-2.5,·,
CCn1c(-c2cc(C3CC3)nc3ccccc23)n[nH]c1=S,4.8,-21.4,9.1,-8.4,2.0%,

# 4 consecutive entries already listed, for reference:
SMILES,RecA splice inh,YopH PTP inh,Arbovirus anti,Mtb betalactam,Mtb growth,others
Cc1nc(S(=O)(=O)c2ccc(Cl)cc2)c(NCc2ccccc2)o1,1.8,-26.8,5.0,-0.8,-2.6%,Arbovirus anti repeat=1.9
O=C(/C=C/c1cn(-c2ccccc2)nc1-c1cccnc1)NCCN1CCOCC1,2.0,·,17.1,-0.6,-1.1%,
O=C(O)c1ccc(N2C(=O)c3[nH]nc(-c4ccccc4)c3C2c2ccccc2)cc1 (stereo unspecified),1.2,·,-3.1,-0.9,3.2%,
CCN(Cc1cc2ccccc2[nH]c1=O)C(=O)c1cccc([N+](=O)[O-])c1,1.4,·,·,-12.8,-1.9%,

# The list continues.
SMILES,RecA splice inh,YopH PTP inh,Arbovirus anti,Mtb betalactam,Mtb growth,others
O=C(NCCCn1ccnc1)C(Cl)(Cl)Cl,2.1,·,6.0,-0.8,4.0%,
S=c1[nH]c(-c2ccc(Cl)cc2)cs1,-1.6,·,18.5,37.2,4.9%,
CCOc1cc2c(cc1OCC)C(c1ccccc1OC)OC(=O)C2 (stereo unspecified),-0.5,-11.3,-5.0,4.0,1.9%,
COc1ccc(C(=O)C2CCCN(Cc3ccc(Sc4nncn4C)o3)C2)cc1F (stereo unspecified),0.2,·,3.6,-8.2,4.4%,
CCOC(=O)C1=C(C)OC(N)=C(C#N)C1c1cccc(C)c1 (stereo unspecified),-2.5,·,7.3,-6.1,-5.3%,
CC1=C(C#N)C(=O)NC(C)(C)C1,2.1,-17.0,1.5,-12.2,-6.9%,
C=CCOc1ccccc1CN1CCC(Oc2ccc(C(=O)N3CCCC3)cc2)CC1,0.2,·,·,5.0,·,

# Screening data deposited in PubChem by several laboratories.

# Not all compounds are listed (hit frequency here may not be typical).
